# Bioassay records (PubChem BioAssay)
# D2 agonist – activates the human D2 dopamine receptor. P14416. DiscoveRx PathHunter D2 beta-arrestin, luminescence, 90 min; 100% = 57 uM dopamine signal. activation, % (test concentration not listed). actives 0.084% (n = 360,000); in the data active = activation above about 40%; inconclusive = about 15% to 40%; inactive = below about 15%; further: compound concentration not given in the record; the text of the record calls up to 30% inactive
# Target sequence (P14416 whole entry, looked up): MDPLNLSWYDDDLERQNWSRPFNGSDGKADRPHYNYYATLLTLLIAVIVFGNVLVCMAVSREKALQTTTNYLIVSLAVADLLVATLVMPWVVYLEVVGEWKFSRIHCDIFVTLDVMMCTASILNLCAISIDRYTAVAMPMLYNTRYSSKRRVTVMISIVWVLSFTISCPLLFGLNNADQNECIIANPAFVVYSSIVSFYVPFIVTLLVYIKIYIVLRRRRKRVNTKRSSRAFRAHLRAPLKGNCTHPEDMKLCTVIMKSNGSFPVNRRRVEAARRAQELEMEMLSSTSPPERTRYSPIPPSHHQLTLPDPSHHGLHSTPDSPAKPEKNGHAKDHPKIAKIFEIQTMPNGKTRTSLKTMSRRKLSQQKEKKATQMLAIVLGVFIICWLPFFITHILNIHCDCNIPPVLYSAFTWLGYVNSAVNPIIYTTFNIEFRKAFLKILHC
#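 DiscoveRx PathHunter D2 beta-arrestin cells (2,100/well) attached overnight, then compound-stimulated 90 min at 37 C in HBSS/10 mM HEPES/0.1% Tween-20 buffer; beta-galactosidase complementation read by luminescence after 1 h at ambient temperature. Dopamine 57 uM final (EC100) as control.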
# TRPML1 blocker – human mucolipin-1 channel inhibition; TRPML1-inducible cells, Ca2+ dye fluorescence, FDSS; hits give low values; inhibition of EC80 agonist-evoked calcium signal; activity change, negative = inhibition, % (test concentration not listed); actives 0.02% (n = 390,000); Q9GZU1; in the data active means activity change below about -50%; inconclusive means about -30% to -50%; inactive means above about -30%;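 further: stimulus is agonist 54-4 at its EC80 concentration; on the % scale 0 is the no-effect control and ±100 the full control effect; compound concentration not given in the record; the text of the record puts the active cut at -80%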
# Target sequence (Q9GZU1 whole entry, looked up): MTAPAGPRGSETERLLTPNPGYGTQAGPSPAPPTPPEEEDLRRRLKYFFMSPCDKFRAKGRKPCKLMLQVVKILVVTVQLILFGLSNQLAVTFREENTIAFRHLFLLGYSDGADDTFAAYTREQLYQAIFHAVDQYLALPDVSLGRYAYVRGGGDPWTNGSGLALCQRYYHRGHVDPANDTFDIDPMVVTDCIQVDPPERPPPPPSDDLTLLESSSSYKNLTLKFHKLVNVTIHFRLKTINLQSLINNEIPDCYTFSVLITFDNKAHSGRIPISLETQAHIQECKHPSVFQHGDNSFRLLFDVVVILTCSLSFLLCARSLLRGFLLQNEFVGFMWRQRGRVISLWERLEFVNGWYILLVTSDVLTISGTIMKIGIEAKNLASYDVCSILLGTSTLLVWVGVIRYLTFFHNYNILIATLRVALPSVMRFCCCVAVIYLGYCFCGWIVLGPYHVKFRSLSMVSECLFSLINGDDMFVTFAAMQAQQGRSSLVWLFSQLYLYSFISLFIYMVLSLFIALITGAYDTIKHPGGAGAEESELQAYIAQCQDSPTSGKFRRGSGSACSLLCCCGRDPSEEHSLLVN
#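 TRPML1-DL cells, Tet-induced overnight (~16 h, 37 °C) at 1,500 cells/well, were loaded with Ca8 no-wash dye plus quencher for 45-90 min at room temperature. Compounds were pinned during FDSS kinetic reading; agonist 54-4 at EC80 (4 uM final) then added.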
# CtBP-E1A inh – CtBP/E1A binding inhibition | AlphaScreen GST-E1A/His-CtBP binding, 1536-well; hits give low values; control for the full effect not named in the record | activity change, % (no concentration beside the values) | actives 0.49% (n = 340,000) | AID 651724; in the data active means activity change below about -65%; inconclusive means about -30% to -65%; inactive means above about -30%; further: on the % scale 0 is the no-effect control and ±100 the full control effect; compound concentration not given in the record
#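 Steps: dispense buffer (Tris pH 8.0, NaCl 300 mM, TCEP 1 mM, BSA, Tween 20); add 5X protein mix (GST-E1A, His-CtBP, 125 nM each); pin 23 nL compound; 2 h at 37 °C, dark; add 5X beads (50 ug/mL); 1 h; read.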
# PINK1 modulator – changes PINK1 expression | PINK1 immunofluorescence, high-content cytometry, 24 h | Potency, µM (series often up to 76.6 µM), for the others: top-dose activation (PINK1 increase), usual class: activators | actives 0.2% (n = 410,000); active = well fitted activation curve with a large enough effect; inconclusive = small, poorly fitted or top-dose-only effect; inactive = flat fitted curve, though single readings scatter; cell line not stated here;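 further: potency means the concentration at half of the fitted maximal effect; % of control where 0% means no effect; nearly all actives have a fitted effect of over 65% in size; a mitochondrial uncoupler was the plate control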
#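 PINK1 protein level read as immunofluorescence by microplate cytometer in a fixed, stained stable cell line after 24 h exposure to five compound concentrations, with CCCP as control.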
# TRPML1 ag – activates the human TRPML1 channel. Q9GZU1. TRPML1-expressing cells, Ca2+ dye fluorescence, FDSS; host cell line not named in the record; reference of the full effect not given here. activation, % (no concentration beside the values). actives 0.12% (n = 410,000). AID 624414; in the data active = activation above about 50%; inconclusive = about 30% to 50%; inactive = below about 30%; further: 0% is about no effect; the text of the record puts the active cut at 80%
#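 Tetracycline-induced TRPML1-DL cells are seeded and incubated overnight before loading with a no-wash Ca2+ dye and quencher. Agonist activity is taken from the 110 s fluorescence read following compound pin-transfer on an FDSS, before EC80 54-4 challenge.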
# Six1-Eya2 inh – inhibitors of human Six1/Eya2 interaction. AlphaScreen GST-Six1/His-Eya2 binding, biochemical; hits give low values; control for the full effect not named in the record. Q15475+O00167. AID 651725. activity change, % (test concentration not listed). actives 0.56% (n = 360,000); in the data active = activity change below about -65%; inconclusive = about -30% to -65%; inactive = above about -30%; further: on the % scale 0 is the no-effect control and ±100 the full control effect; compound concentration not given in the record
#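 Six1/Eya2 binding was read as AlphaScreen signal after compounds were pinned into GST-Six1 plus His-tagged Eya2 (5X stock 250/500 nM) in pH 8.0 Tris/NaCl/TCEP buffer, beads added, then incubated 1 h, 37 C, dark.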
# * = called active by the depositor; ? = inconclusive; . = no result given; [ ] = remark or other dose.
SMILES,D2 agonist,TRPML1 blocker,CtBP-E1A inh,PINK1 modulator,TRPML1 ag,Six1-Eya2 inh
O=C(Cc1cccc2ccccc12)NN1C(=O)/C(=C\c2cccnc2)SC1=S,-3.6,29.2,2.8,12.8%,0.8,7.9
CCOc1ccc(CN2CCC(n3nccc3NC(=O)C3CC3)CC2)cc1CO,4.3,21.5,4.2,0.0%,1.2,3.9
Cc1ccc(Oc2ncc(-c3ccc(Cl)cc3)cn2)cc1,-3.3,-16.8,4.2,19.6%,1.0,0.9
CCCc1cc(C(=O)Nc2c(C)nn(Cc3ccc(Cl)c(Cl)c3)c2C)no1,.,-25.9,.,-0.2%,10.5,.
Cn1cccc1/C=N/NC(=O)c1sc2ccccc2c1Cl,-7.5,4.4,?,0.8%,-0.6,?
COc1ccc(C(C)(C)C)cc1NC(=O)CCNC(=O)c1ccco1,-3.4,-10.6,-7.7,1.2%,1.3,0.1
COc1ccc2c(CSc3nnc(-c4cccnc4)n3-c3ccccc3F)cc(=O)oc2c1,2.5,-2.8,10.5,-0.1%,0.6,2.6
Cc1ccc(-n2nc(C(=O)N3CCN(c4ccccc4F)CC3)c3c4ccccc4n(C)c3c2=O)cc1,.,16.3,.,1.0%,0.1,.
COc1ccccc1NCCC(=O)OCC(=O)NC1CCCCC1,-2.5,-4.0,-15.2,3.5%,0.7,-4.9
CCOC(=O)c1cc2cc(-c3c(C(=O)OCC)oc4cc(O)cc(O)c4c3=O)ccc2o1,4.0,3.2,-1.1,?,1.8,-16.5
CCOc1cc(NC(=O)c2ccccn2)c(OCC)cc1NC(=O)CC(C)C,-2.2,-4.6,-1.4,11.4%,1.8,-0.2
Cc1ccc(NC(=O)c2cnccn2)cc1S(=O)(=O)N1CCCCCC1,0.5,2.5,5.4,-0.3%,-0.2,-4.7
Cc1ccc(S(=O)(=O)NCC(=O)NNC(=O)c2ccccc2Cl)cc1C,-2.8,24.2,1.2,0.9%,-0.1,0.7
CC(=O)c1cn(Cc2ccccc2)c(=O)[nH]c1=O,-1.8,-6.2,0.0,-0.2%,0.3,2.8
CCn1ncc(S(=O)(=O)NCc2ccccc2Cl)c1C,-3.1,39.5,7.0,-0.3%,0.8,3.6
CC(C)CNC(=O)C1(C)CCCN1C(=O)c1ccncc1 (centres undefined),?,.,7.2,0.4%,-0.2,1.2
COc1ccc(-n2nc(C(=O)NCC(=O)Nc3cc(C)ccc3OC)c3ccccc3c2=O)c(OC)c1,-3.8,4.6,-1.3,4.4%,0.9,-9.2
CN(C)c1ccc(/C=N/NS(=O)(=O)c2ccc(Br)cc2)cc1,0.8,18.5,2.2,1.3%,0.8,-5.6
COc1cc(NC(=O)Cn2nc(-c3ccc(F)cc3)ccc2=O)ccc1-n1cnnn1,-1.7,10.1,.,2.7%,1.3,-2.1
CC(=O)N1CCOc2cc(S(=O)(=O)NCc3ccc(C)cc3)c(Cl)cc21,.,6.4,.,1.6%,0.4,.
CC(=O)c1cccc(NC(=O)C(C)OC(=O)c2cccc(S(=O)(=O)N3CCN(C)CC3)c2)c1 (centres undefined),-2.0,-11.9,.,1.0%,0.0,2.9
NCCNc1ccc(C(=O)N2c3ccccc3Sc3ccccc32)cc1[N+](=O)[O-],-7.5,85.8,-1.2,-1.9%,-0.5,-18.0
O=C(O)C(CCc1ccccc1)(Cc1ccccc1)C(=O)O,0.5,0.3,3.7,0.7%,-0.5,-3.3
Fc1ccc(N2CCN(C3=Nc4cccc5cccc3c45)CC2)cc1,-3.4,-12.7,?,1.4%,0.8,?
Cc1ccc(S(=O)(=O)Nc2nc(C)c(C)s2)cc1,1.2,-0.2,-1.8,-1.1%,-0.4,0.7
Cc1ccc(C2C(C(=O)c3cc4ccccc4o3)=C(O)C(=O)N2c2cc(C)on2)cc1 (centres undefined),-5.3,-4.0,-1.6,-0.5%,1.4,-8.8
COCCn1c(=NC(=O)CSC(C)=O)sc2cc(F)ccc21,-4.4,16.5,5.8,?,-0.4,2.6
Cc1nc2ncnn2c(C)c1CCC(=O)NCc1ccccc1,-1.0,-11.5,4.0,.,0.0,-0.1
COc1ccc(-c2nc(CS(=O)(=O)CC(=O)NC3CCCCCC3)c(C)o2)cc1,-3.1,1.6,-14.7,1.4%,-0.1,-5.9
COc1ccc(NC(=O)c2c(OC)cccc2OC)c(OC)c1,-1.3,11.4,-20.0,-0.5%[38.3 µM],0.9,-23.6
O=C(Nc1nc2ccc(F)cc2s1)C1CCCO1 (centres undefined),1.2,-6.2,5.6,4.3%[38.3 µM],-0.4,8.6
CCOC(=O)c1oc2ccccc2c1NC(=O)CCl,-5.0,4.6,.,-0.5%,-0.9,-3.3
O=C(O)c1ccc2c(=O)n3c(nc2c1)/C(=C/c1ccccc1OC(F)F)CC3,-3.3,9.9,.,6.0%,-0.9,-6.2
CCCCC(=O)Oc1cc(C)[nH]c(=O)c1[N+](=O)[O-],5.7,-0.4,13.1,0.2%,-0.1,4.1
Cc1ccc(C2/C(=C(/O)c3ccc(OC(C)C)cc3)C(=O)C(=O)N2CCN2CCOCC2)cc1 (centres undefined),-1.9,31.5,-8.1,3.2%,-0.5,10.5
CCc1nnc(NC(=O)c2ccc(S(=O)(=O)N3CCCCC3C)cc2)s1 (centres undefined),-3.5,24.0,6.7,-1.3%[38.3 µM],0.6,2.6
CC1=C(C(=O)Nc2ccccc2)C(c2ccco2)C(C#N)=C(SCC(=O)OC(C)C)N1 (centres undefined),-2.4,6.3,2.3,109.3%[38.3 µM],-0.4,-3.5
COc1ccc2ccc(OC)c(/C=N/NC(=O)c3cc4ccccc4o3)c2c1,1.8,39.3,-0.4,4.7%,2.9,-6.9
CCc1ccccc1NC(=O)CN1C(=O)c2cccnc2Oc2ccc(Cl)cc21,.,6.7,.,0.4%,-0.3,.
Cc1cc(NS(=O)(=O)c2ccc(NC(=O)CCN3C(=O)c4ccccc4C3=O)cc2)no1,0.4,-15.1,-1.0,-1.6%[38.3 µM],1.1,-1.3
O=c1cc(-c2ccc(O)cc2)oc2c(C3O[C@H](CO)[C@@H](O)[C@H](O)[C@H]3O)c(O)cc(O)c12 (some centres undefined),-2.3,-14.5,17.9,1.5%,-0.8,15.3
COc1ccc2nc(N3CCCC(O)C3)c(C#N)cc2c1 (centres undefined),1.4,-2.0,3.5,-0.4%,3.0,0.7
Cc1ccc(C2=[N+]([O-])C(C)(C)N(O)C2(C)C)cc1,3.7,-3.1,-4.1,1.8%,0.4,10.9
C=C(C)C1CC=C(C)/C(=N/NC(=O)c2ccoc2C)C1 (centres undefined),-2.4,-11.3,8.5,0.9%,-0.6,-7.2
NNC(=O)CSc1c(-c2cccs2)[nH]c2ccccc12,-4.5,-1.3,-0.5,3.6%,0.5,-6.6
Brc1ccc(CSc2nnc(Cc3c[nH]c4ccccc34)o2)cc1,-2.8,24.8,-20.8,1.9%,1.0,-10.9
O=C(Cn1cnc2c(oc3ccccc32)c1=O)NCCc1ccccc1,-0.3,12.9,4.0,.,-0.2,4.7
Cc1nn(C(=O)C(C)N2C(=O)c3ccccc3C2=O)c(C)c1Br (centres undefined),1.8,2.9,-10.5,2.6%,3.5,4.4

# Gathered by group: the compounds so far containing a COOH group.
SMILES,D2 agonist,TRPML1 blocker,CtBP-E1A inh,PINK1 modulator,TRPML1 ag,Six1-Eya2 inh
O=C(O)C(CCc1ccccc1)(Cc1ccccc1)C(=O)O,0.5,0.3,3.7,0.7%,-0.5,-3.3
O=C(O)c1ccc2c(=O)n3c(nc2c1)/C(=C/c1ccccc1OC(F)F)CC3,-3.3,9.9,.,6.0%,-0.9,-6.2

# The list goes on.
SMILES,D2 agonist,TRPML1 blocker,CtBP-E1A inh,PINK1 modulator,TRPML1 ag,Six1-Eya2 inh
O=C(Nc1c(F)cc(F)cc1Br)c1cc2nc(C(F)F)cc(C(F)F)n2n1,-2.1,-10.3,-1.6,8.0%,0.2,9.2
CC(=O)Nc1ccc(S(=O)(=O)NCC(=O)OCC(=O)NNC(=O)c2ccccc2)cc1,0.4,1.2,15.6,1.8%,1.8,6.2
O=[N+]([O-])c1ccc(Sc2ccccn2)nc1,3.6,7.9,5.2,-0.8%,0.1,3.4
O=C(NCCN1CCN(C(=O)c2cccs2)CC1)C(=O)Nc1ccc(Br)cc1,-1.0,-8.5,-7.4,-0.1%,-0.2,-1.5
COc1ccc(S(=O)(=O)Nc2cccc3c2O[C@H](CN(C)C(=O)Nc2ccc(C(F)(F)F)cc2)[C@@H](C)CN([C@H](C)CO)C3=O)cc1,0.5,-12.0,3.0,2.6%,0.5,1.6
COc1cccc(C2=NOC(C(=O)N3CCc4ccccc4C3)C2)c1 (centres undefined),0.3,-15.3,1.9,4.2%,1.4,3.4
CCOC(=O)C1CCCN(C(=O)C2CCCN(S(C)(=O)=O)C2)C1 (centres undefined),0.1,7.5,0.7,6.9%[38.3 µM],0.2,3.4
Cc1[nH]c2ccccc2c1C(=O)C(=O)NCc1ccncc1,2.1,2.2,8.4,-1.9%,1.9,5.4
Cc1ccc(C(=O)N2CCC3CC2c2cc(-c4ccc5c(c4)OCO5)ccc23)cc1 (centres undefined),-1.8,51.4,-18.3,3.0%,2.5,-14.2
CN(C)CCN(C(=O)c1cccc(N2C(=O)CCC2=O)c1)c1nc2ccc(Br)cc2s1,-0.6,-4.2,7.3,-0.6%,2.2,1.7
O=C(CSc1nnc(-c2ccc(Cl)cc2)o1)N1CCOCC1,-3.6,-8.6,3.0,-0.6%,-0.4,-1.8
Cc1ccc(F)cc1NC(=O)Cn1c(C)cc(C)c(C#N)c1=O,.,-19.4,.,-0.2%,0.9,.
Cc1cccc(N=Cc2c(O)cc(C)oc2=O)c1,-1.2,-11.9,0.0,0.5%,2.1,-0.5
Cc1cc2c(cc1S(=O)(=O)CCC(=O)N1CCCCC1C)OCC(=O)N2 (centres undefined),.,38.3,.,0.4%,3.8,.
CCOC(=O)C1CCNC(=O)C1=O (centres undefined),-1.2,8.5,-3.6,2.2%,-0.2,-2.3
COc1ccc(-c2ccc(=O)n(CC(=O)Nc3ccc(C)cc3C)n2)cc1,.,33.5,.,2.0%,3.2,.
CC(C)Cc1cc(CN2CCC(CO)(Cc3cccc(C(F)(F)F)c3)CC2)[nH]n1,-1.1,-0.4,-4.4,-1.5%,0.1,-6.7
CC/C(=N\NC(=O)c1c(C)nc2ccccn12)c1ccccc1,-4.1,-7.2,4.1,1.0%,-0.6,2.1
CCc1nnc(NC(=O)CSc2nnc(-c3ccoc3C)n2-c2ccccc2)s1,-7.1,-1.1,-1.2,-0.4%,-0.8,-0.4
O=C(CSc1nnc2c(n1)[nH]c1ccccc12)OCc1ccccc1,1.5,18.6,6.6,0.1%,0.7,5.7
COc1ccccc1NC(=O)/C=C/c1ccc2c(c1)OCO2,-0.5,-7.6,.,3.7%,-0.1,1.2
O=c1cc(N2CCN(c3ccccc3)CC2)[nH]c(=O)n1-c1ccccc1Cl,-0.7,-4.6,-1.3,-3.9%[38.3 µM],1.0,0.8
